Source: PubChem
EPAC2 ant val = Validation qHTS for antagonist of cAMP-regulated guanine nucleotide exchange factor 4 (EPAC2) | Potency, µM (titrated, usually from 112 µM), without a hit: at the highest dose activity, negative = inhibition, hits mostly inhibitors | actives 1.7% (n = 16,000) | EPAC2 Rap1B BODIPY-GDP exchange, fluorescence; active means well fitted inhibition curve with a large enough effect; inconclusive means small, poorly fitted or top-dose-only effect; inactive means no such curve, though single readings can be large or run the other way;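 further: 100% = activation by cAMP agonist control; nearly all actives have a fitted effect of over 40% in size; the record reuses the description of the EPAC1 agonist screen; inactives centre near -10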
Target sequence (Q8WZA2 whole entry, looked up): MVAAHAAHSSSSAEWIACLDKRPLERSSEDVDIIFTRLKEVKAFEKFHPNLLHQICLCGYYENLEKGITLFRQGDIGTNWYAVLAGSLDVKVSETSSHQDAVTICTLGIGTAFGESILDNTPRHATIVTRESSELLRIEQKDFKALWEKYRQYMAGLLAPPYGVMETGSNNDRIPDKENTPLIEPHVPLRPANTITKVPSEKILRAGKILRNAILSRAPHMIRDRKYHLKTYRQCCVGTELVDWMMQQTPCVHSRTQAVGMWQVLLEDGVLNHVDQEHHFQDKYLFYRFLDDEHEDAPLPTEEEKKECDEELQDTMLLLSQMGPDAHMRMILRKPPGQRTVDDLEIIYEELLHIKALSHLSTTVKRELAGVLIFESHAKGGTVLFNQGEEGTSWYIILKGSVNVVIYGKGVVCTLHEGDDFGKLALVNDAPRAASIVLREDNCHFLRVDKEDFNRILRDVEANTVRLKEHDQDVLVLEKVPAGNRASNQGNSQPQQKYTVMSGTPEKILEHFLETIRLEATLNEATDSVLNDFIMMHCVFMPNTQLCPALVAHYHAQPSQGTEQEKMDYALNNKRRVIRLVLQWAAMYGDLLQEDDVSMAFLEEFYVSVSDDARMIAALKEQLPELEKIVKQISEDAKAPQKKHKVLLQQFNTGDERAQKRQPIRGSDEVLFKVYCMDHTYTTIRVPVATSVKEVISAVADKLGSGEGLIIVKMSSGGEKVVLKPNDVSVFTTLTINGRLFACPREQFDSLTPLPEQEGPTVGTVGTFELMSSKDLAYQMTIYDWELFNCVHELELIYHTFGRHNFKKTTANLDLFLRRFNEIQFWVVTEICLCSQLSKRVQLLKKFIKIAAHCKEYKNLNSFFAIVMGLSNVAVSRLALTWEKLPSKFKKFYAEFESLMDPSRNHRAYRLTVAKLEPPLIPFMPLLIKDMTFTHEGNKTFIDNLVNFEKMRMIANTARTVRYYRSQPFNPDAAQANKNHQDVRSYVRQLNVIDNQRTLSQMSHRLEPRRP
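Normalized against a 6.5 mM cAMP agonist control, compounds were tested on 100 nM EPAC2 exchanging Rap1B-bound BODIPY-GDP (250 nM) for 50 uM GDP. Fluorescence drop (ex 480, em 540 nm) was tracked at room temperature over 30 min at 5-min intervals.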
Starred values were filed as active, the others as inactive; ? = inconclusive; & = joins results of further samples; [ ] = dose if it differs, or a comment. Potency means the concentration at half of the fitted maximal effect. The list is partial; the hit share may differ from the screen's.

SMILES | EPAC2 ant val
C=CCNc1ncnc2ccc(Br)cc12 | -21%
O=C(C[N+]12CCCc3cccc(c31)CCC2)c1ccccc1 | -14%
CN1CCN(c2cc3c(nn2)Oc2ccccc2N3C)CC1 | 20%
Cn1c(SCc2ccccc2)nnc1C1CCCN(Cc2cccc3ncccc23)C1 (stereo not given) | -20%
C[N+]12CCC(CC1)C(OC(=O)C(O)(c1ccccc1)c1ccccc1)C2 (stereo not given) | -13%
C[C@@]12CCC(O)C[C@H]1CCc1ccccc12 (stereo not given in full) | -17%
CC(=O)OC1CCC2(C)C3CC(=O)C4(C)C(CC5OC6(CCC(C)CO6)C(C)C54)C3CC[C@H]2C1 (stereo not given in full) | -16%
Cn1cccc1C(=O)N1CCC[C@@]2(CCN(Cc3nccs3)C2)C1 | -16%
FC(F)(F)c1ccccc1-c1ccc2ncnc(NC3CCNCC3)c2c1 | -2%
Cc1ccccc1C1(CC(=O)N2CCOCC2)CC(=O)N(Cc2cccnc2)C1=O (stereo not given) | 1%
Cn1cc(-c2nc3cnc(N4CCNCC4)nc3n(Cc3ccc(F)cc3)c2=O)c2ccccc21 | -20%
O=C(O)c1cc2cc(F)ccc2[nH]1 | -21%&-9%
CC(=O)OCC(=O)[C@@]1(O)CCC2C3CCC4=CC(=O)CC[C@]4(C)C3C(O)C[C@]21C (stereo not given in full) | -7%
COc1ccc(NC(=O)N2CC3(CCN(S(C)(=O)=O)CC3)C2)cc1 | ?
O=C(c1cccc(F)c1)N1CCC2(CCCN(c3cccc(-c4ccccc4)c3)C2)CC1 | -19%
COc1ccc(C(=O)N2CCN(CC(=O)N3CCOCC3)CC2)cc1 | 1%
COC[C@H](c1ccc(C(F)(F)F)cc1)N1CCN(C2(C)CCN(C(=O)c3c(C)ncnc3C)CC2)C[C@H]1C | -1%
CCCCCCCN1CCC(=O)N(CCO)CC1 | ?
COC(=O)N1CCC[C@@]2(CCN(C(=O)NC(C)C)C2)C1 | -4%
O=C(c1ccco1)N1CCC2(CC1)CCN(C(c1ccccc1)c1ccccc1)CC2 | -13%
CCC1CN(Cc2c(C)nc3sccn23)Cc2cc(OC)ccc2O1 (stereo not given) | -3%
CC(=O)Nc1ccccc1-c1nc(CNC(=O)c2ccc(-c3ccccc3F)cc2)c(C)o1 | ?
CC1(C)OC[C@@H]2O[C@@]3(C(=O)O)OC(C)(C)O[C@H]3[C@@H]2O1 | -15%
COc1cc(=O)n2c(c1C(=O)N(C)Cc1nccs1)CCN(Cc1ccc(Cl)cc1)CC2 | ?
O=C(c1ccncc1)N1CCC2(CCCN(Cc3ccncc3)C2)CC1 | -25%
CO/N=C(\C(=O)N[C@@H]1C(=O)N2C(C(=O)O)=C(CSc3cnns3)CS[C@H]12)c1csc(N)n1 | -22%
O=C(c1cc(C(F)(F)F)cc(C(F)(F)F)c1)N1CCC[C@@]2(CCN(c3ncccn3)C2)C1 | -27%
Cc1c(C)n(CCN(C)C)c2ccc(C(=O)OCCN(C)C)cc12 | -13%
CCCCCCCCCCCCCCCCSCC(COC)COP(=O)([O-])OCC[N+](C)(C)C (stereo not given) | ?
C(=C\c1ccccn1)/c1ccccc1 | 1%
COc1ccc(NC(=O)N2CC[C@@]3(CCCN(C(=O)c4cccc(F)c4)C3)C2)cc1 | -1%
C=C1[C@@H](O)[C@H](CC(C)C)N(Cc2ccccc2Br)S1(=O)=O | ?
CNC1C(O)C(O)C(CO)O[C@H]1OC1C(O[C@@H]2C(O)C(O)[C@@H](N=C(N)N)C(O)C2N=C(N)N)OC(C)[C@]1(O)C=O (stereo not given in full) | -4%
COC(=O)/C(C)=C/CC12OC(C)(C)C3CC(C=C4C(=O)c5cc6c(c(CCC(C)(C)Cl)c5OC431)OC1(C)CCC(=C(C)C)C6C1)C2=O (stereo not given) | -5%
CCC1OC(=O)C(C)[C@@H](O[C@H]2C[C@@](C)(OC)C(O)C(C)O2)C(C)[C@@H](O[C@@H]2OC(C)CC(N(C)C)C2O)[C@@](C)(O)CC(C)CN(C)C(C)C(O)[C@]1(C)O (stereo not given in full) | -12%
CC(C)CC(NP(=O)(O)O[C@@H]1O[C@@H](C)[C@H](O)[C@@H](O)[C@H]1O)C(=O)NC(Cc1c[nH]c2ccccc12)C(=O)O (stereo not given in full) | 14%

Some of these compounds in order of heavy-atom count, rising.
SMILES | EPAC2 ant val
C[C@@]12CCC(O)C[C@H]1CCc1ccccc12 (stereo not given in full) | -17%
CC(=O)Nc1ccccc1-c1nc(CNC(=O)c2ccc(-c3ccccc3F)cc2)c(C)o1 | ?
CCCCCCCCCCCCCCCCSCC(COC)COP(=O)([O-])OCC[N+](C)(C)C (stereo not given) | ?
CC(C)CC(NP(=O)(O)O[C@@H]1O[C@@H](C)[C@H](O)[C@@H](O)[C@H]1O)C(=O)NC(Cc1c[nH]c2ccccc12)C(=O)O (stereo not given in full) | 14%
COC(=O)/C(C)=C/CC12OC(C)(C)C3CC(C=C4C(=O)c5cc6c(c(CCC(C)(C)Cl)c5OC431)OC1(C)CCC(=C(C)C)C6C1)C2=O (stereo not given) | -5%

Later entries:
SMILES | EPAC2 ant val
CCNc1ncc2nc(C)c(=O)n(C3CC3)c2n1 | 5%
O=C(NCC1Cc2cccc(-c3cccnc3)c2O1)c1cc(-c2ccccc2)n[nH]1 (stereo not given) | -3%
CN(C)c1ccc(-c2cncnc2Nc2ccccc2)cc1 | ?
Nc1ncnc2c1ncn2[C@H]1O[C@@H](CSCC[C@@H](N)C(=O)O)[C@H](O)[C@@H]1O | -14%
CCNc1ncc2nc(-c3ccc(OC)cc3)c(=O)n(CCC#N)c2n1 | 0%
COc1ccc2c(c1)-c1nc(-n3ncc(C(=O)NCc4cccnc4)c3C3CC3)ncc1CC2 | -8%
c1ccc(C(O[C@H]2CCCN(CCc3ccc4c(c3)OCO4)C2)c2ccccc2)cc1 | -26%
CC(C)CC(=O)N[C@H](C(=O)N[C@H](C(=O)N[C@@H](CC(C)C)[C@@H](O)CC(=O)N[C@@H](C)C(=O)N[C@@H](CC(C)C)[C@@H](O)CC(=O)O)C(C)C)C(C)C | 1%&24%
COC1C[C@@H](O[C@@H]2C(C)C(=O)OC(C)C(C)C(O)C(C)C(=O)[C@@]3(CO3)CC(C)C(OC3OC(C)CC(N(C)C)C3O)C2C)OC(C)[C@@H]1O (stereo not given in full) | -8%
N[C@H](CCCP(=O)(O)O)C(=O)O | ?
CC(=O)Nc1c(I)c(C(=O)N[C@H]2C(O)O[C@H](CO)[C@@H](O)[C@@H]2O)c(I)c(N(C)C(C)=O)c1I (stereo not given in full) | -29%[56.6 µM]
Cc1ccccc1C1(CC(=O)N2CCCC(C)C2)CC(=O)N(Cc2cccnc2)C1=O (stereo not given) | 14%
Cc1ncc2c(c1CNS(=O)(=O)N(C)C)CCN(C(=O)/C=C/c1ccccc1)C2 | 12%
CC(=O)N1CCN(c2ccc(OC[C@H]3CO[C@](Cn4ccnc4)(c4ccc(Cl)cc4Cl)O3)cc2)CC1 | ?
COC(=O)[C@@H]1CCCN1Cc1ccc2c(c1)CN(Cc1ccccc1F)CCO2 | -6%
C[C@@]12CCC(OC(=O)c3ccccc3)CC1CCc1ccccc12 (stereo not given in full) | -9%
Cn1c(=O)c(-c2cccc(C#N)c2)nc2cnc(Oc3ccccc3)nc21 | -10%
Cc1ccc(C(C)CCN2CCOc3ccc(CN4CCOCC4)cc3C2)o1 (stereo not given) | -30%
COc1cc(=O)n2c(c1C(=O)NCc1ccco1)CCN(Cc1cc3ccccc3[nH]1)CC2 | -31%
O=c1[nH]c(=O)n([C@H]2C[C@H](O)[C@@H](CO)O2)cc1/C=C/Br | -7%
COc1cccc(-c2nccc(NCc3ccccc3)n2)c1 | ?
O=C(c1ccc(OCCN2CCCCC2)cc1)c1c(-c2ccc(O)cc2)sc2cc(O)ccc12 | -12%&-7%
OC1(c2cccnc2)CCN(Cc2ccc3c(c2)CN(Cc2cc(F)cc(F)c2)CCO3)CC1 | -5%
CC(C)NC[C@H](O)COc1ccc(CC(N)=O)cc1 | -15%&-12%&-22%&-18%
CN[C@H](CC(=O)O)C(=O)O | 0%&-7%&-23%
CCO[C@H]1[C@H](NC(=O)c2cccnc2)c2ccccc2C12CCN(C(=O)c1ccoc1)CC2 | 0%
Cn1cc(NC(=O)c2cc(NC(=O)c3cc(NC=O)cn3C)cn2C)cc1C(=O)NCCC(=N)N | 14%
Brc1ccc(CN2CC[C@H]3C=CCc4cccc(c43)C2)cc1 | ?
CC(=O)Nc1ccc(SC[C@H](C)CN2CC[C@H](O)CCC2=O)cc1 | -8%
CN(C)C(=O)c1ccc(-c2cc(Nc3ccccc3)ncn2)cc1 | -8%
CCC1(C2CCN(C(=O)c3cccc(F)c3F)CC2)NC(=O)N(CCc2scnc2C)C1=O (stereo not given) | 17%
CN1C[C@H](C(=O)N[C@@]2(C)O[C@@]3(O)C4CCCN4C(=O)C(Cc4ccccc4)N3C2=O)C[C@H]2c3cccc4[nH]cc(c34)C[C@H]21 (stereo not given in full) | -7%
Cc1cc(O)c(C=O)c(O)c1C(=O)O | 0%
Cn1cccc1C(=O)N1CCC[C@@]2(CCN(Cc3ccc(C#N)cc3)C2)C1 | -10%
CCOC(=O)C12CC1/C(=N\O)c1ccccc1O2 (stereo not given) | -20%
O=C(Nc1ccccc1)N1CC2(CCN(C(=O)c3cc(C(F)(F)F)cc(C(F)(F)F)c3)CC2)C1 | ?
COc1ccc(CNc2ccnc(-c3c(C)noc3C)n2)c(OC)c1 | ?
CC12CC[C@@](C(=O)O)(C(=O)C1=O)C2(C)C | -2%
O=c1c(-c2ccccc2)c1-c1ccccc1 | -24%
O=C(Nc1ccccc1)N1CC[C@@]2(CCCN(C(=O)c3cnccn3)C2)C1 | -22%
COc1ccc(C(C)C(=O)c2ccc(O)cc2O)cc1 (stereo not given) | ?
COc1ccccc1CCn1c(=O)c(-c2cc(F)cc(F)c2)nc2cncnc21 | -8%
COc1ccc(-c2cc(=O)c3c(O)cc(O)c(-c4cc(-c5cc(=O)c6c(O)cc(O)cc6o5)ccc4OC)c3o2)cc1 | -6%
Cc1cc(NC(=O)Nc2ccc3c(ccn3C)c2)sn1 | ?
COc1ccc(CNc2ccnc(-c3ccc(C(=O)N(C)C)cc3)n2)c(OC)c1 | -18%
COCC1CCCN(Cc2ccc3c(c2)CN(C(=O)c2cn4ccc(C)cc4n2)CCO3)C1 (stereo not given) | -7%
NC(=S)NS(=O)(=O)c1ccc(N)cc1 | 9%
CN(C)CCN1C(=O)c2ccccc2N(C)c2ccccc21 | 1%

In another format: entries from further up.
Compound	EPAC2 ant val
C[C@@]12CCC(O)C[C@H]1CCc1ccccc12 (stereo not given in full)	-17%
COc1ccc(-c2cc(=O)c3c(O)cc(O)c(-c4cc(-c5cc(=O)c6c(O)cc(O)cc6o5)ccc4OC)c3o2)cc1	-6%
NC(=S)NS(=O)(=O)c1ccc(N)cc1	9%
c1ccc(C(O[C@H]2CCCN(CCc3ccc4c(c3)OCO4)C2)c2ccccc2)cc1	-26%
CCC1CN(Cc2c(C)nc3sccn23)Cc2cc(OC)ccc2O1 (stereo not given)	-3%
C[N+]12CCC(CC1)C(OC(=O)C(O)(c1ccccc1)c1ccccc1)C2 (stereo not given)	-13%
CN(C)C(=O)c1ccc(-c2cc(Nc3ccccc3)ncn2)cc1	-8%

Other entries follow.
SMILES | EPAC2 ant val
O=C(c1ccncc1)N1CCC[C@@]2(CCN(C(c3ccccc3)c3ccccc3)C2)C1 | -27%
COc1ccc2cc(CN(C(=O)c3cc(C)nn3C)C3CC3)c(-c3ccc(Cl)cc3)nc2c1 | ?
Clc1ccc(Nc2nnc(Cc3ccncc3)c3ccccc23)cc1 | 10%&7%
O=C(O)Cc1ccccc1Oc1ccc(Cl)cc1Cl | -26%
COCCn1c(=O)c(-c2cc(F)cc(F)c2)nc2cnc(Oc3ccc(OC)cc3)nc21 | -19%
CCC1CN(CCNC(=O)c2cccc(C)n2)Cc2cc(OC)ccc2O1 (stereo not given) | -3%
Cn1c(=O)c(-c2ccccc2)nc2cnc(Oc3ccccc3)nc21 | ?
O=C(/C=C/c1ccc(O)cc1)c1ccccc1O | ?
O=C(CCCCCCCCC#CI)Oc1ccccc1 | -8%
O=c1c(CCc2ccccc2)nc2cnc(N3CCOCC3)nc2n1Cc1ccc(F)cc1 | -11%
NC(C(=O)O)C(CC(=O)O)c1ccc(Cl)cc1 (stereo not given) | -10%
COC(=O)c1cc(CNC(=O)c2ccc3ncccc3c2)cc(NC(=O)c2ccccc2Cl)c1 | -10%
CN(C)C(=O)C(CCN1CCC(O)(c2ccc(Cl)cc2)CC1)(c1ccccc1)c1ccccc1 | -8%&-13%&-10%&-16%&-26%
CCC(=O)OCC(=O)C1(OC(=O)CC)C(C)CC2C3CCC4=CC(=O)C=CC4(C)C3(Cl)C(O)CC21C (stereo not given) | -30%
COCC(=O)N1CCC[C@@]2(CCN(C(=O)Nc3ccc(OC)cc3)C2)C1 | -9%
CC(C)OC(=O)OCOP(=O)(CO[C@H](C)Cn1cnc2c(N)ncnc21)OCOC(=O)OC(C)C | -10%
COCC(=O)N1CCC2(CC1)CN(C(=O)Nc1cccc(C#N)c1)C2 | -20%
COc1ccccc1N1CCN(C[C@@H](C(=O)NC(C)(C)C)c2ccccc2)CC1 | -16%
CCCCCCCCCCCCCCC(C(=O)O)C(O)(CC(=O)OC)C(=O)O (stereo not given) | ?
O=C1CCN(CCc2ccccc2)CCN1CCO | 14%
C[C@@H]1C(=O)O[C@H]2[C@@H](O)[C@@]34[C@H]5CC(C(C)(C)C)[C@]36[C@@H](OC(=O)[C@@H]6O)O[C@@]4(C(=O)O5)[C@@]12O (stereo not given in full) | -8%
